FGF22 binding = FGF22 (human) thermal shift binding | recombinant FGF22 thermal shift, SYPRO orange fluorescence; percent of sucrose octasulfate shift, DMSO zero | calls only at 9.99 µM | 340,000 tested, 1.5% active;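 active = melting point raised past a set limit in the mean and every replicate; three in four hits are not shown here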
Ecoli growth = E. coli growth inhibition; OD600 absorbance (concentration not given with the values); 330,000 tested, 0.21% active; AID 1053175; Escherichia coli growth, OD600, 23 h; active compounds read low;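 active = OD600 absorbance below the run mean of sample wells minus 3.6 SD, in any replicate, cut at about 0.56 in these data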;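 also: stock transfer was 300 nL into about 60 µL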
ALR inh = blocks human ALR sulfhydryl oxidase activity; purified ALR, DTT oxidation, H2O2 HRP-luminol luminescence; P55789; AID 485317; inhibition, % (concentration not given with the values); 290,000 tested, 3.8% active;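 active = mean and each replicate at 75% or more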;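 also: stock transfer was 7.5 nL into about 7.5 µL; 0% = neutral wells and 100% = wells with inactivated enzyme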
Target sequence (P55789 whole entry, looked up): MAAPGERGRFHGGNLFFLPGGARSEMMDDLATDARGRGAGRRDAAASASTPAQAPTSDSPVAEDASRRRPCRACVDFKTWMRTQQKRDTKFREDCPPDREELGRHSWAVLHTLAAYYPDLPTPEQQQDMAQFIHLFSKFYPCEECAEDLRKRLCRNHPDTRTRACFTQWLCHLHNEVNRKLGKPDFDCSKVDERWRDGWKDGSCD
HNF4A DNA FP = change in binding of human HNF4 alpha to DNA; HNF4a-FITC DNA binding, fluorescence polarization, 1 h; activity change, % at 10 µM; 360,000 tested, 0.3% active; AID 1224865; in the data active = activity change above about 30%, passing the limit was not always enough;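 also: controls were the assay level and a saturating level of protein; the project sought stronger binding though the title names inhibitors; some compounds called inactive have numbers as strong as hits; positive values seem to mean higher polarization but the record does not say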
Ecoli rRNA inh = inhibitors of bacterial rRNA selective over humanized ribosomes. E. coli WT GFP vs humanized-ribosome RFP mutants, fluorescence, 24 h; active compounds read low; DMSO median 0, no signal -100. GFP signal change (wild-type ribosome), % (test concentration not listed). 350,000 tested, 1.6% active. AID 720706;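 active = significant combined selectivity score with lowered wild-type GFP, culture density cut under 30%, mutant RFP and density less affected; inactive = any of these conditions unmet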; also: one replicate is shown; some compounds called inactive have numbers as strong as hits
UCH37 inh = blocks the human deubiquitinase UCH37; Q9Y5K5; purified proteasome/UCH37, Ub-AMC cleavage fluorescence; 330,000 tested, 0.33% active; inhibition, % (test concentration not listed); AID 588478;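 active = mean of two replicates above 20%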;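 also: 0% = compound-free wells with enzyme and 100% = wells lacking proteasome; stock transfer was 100 nL into about 20 µL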
Target sequence (Q9Y5K5 whole entry, looked up): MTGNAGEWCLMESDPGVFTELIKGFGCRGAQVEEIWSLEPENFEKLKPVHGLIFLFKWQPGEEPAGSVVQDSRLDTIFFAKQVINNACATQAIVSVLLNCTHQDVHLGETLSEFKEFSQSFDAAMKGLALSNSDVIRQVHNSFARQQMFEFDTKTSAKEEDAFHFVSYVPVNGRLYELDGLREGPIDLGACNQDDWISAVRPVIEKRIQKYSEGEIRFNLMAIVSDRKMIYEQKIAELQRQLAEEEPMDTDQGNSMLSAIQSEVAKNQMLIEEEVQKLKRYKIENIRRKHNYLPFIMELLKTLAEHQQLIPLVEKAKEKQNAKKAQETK
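system = Proteasome-associated human UCH37 deubiquitinase | amount = 0.15 nM proteasome as dispensed | medium = pH 7.4 Tris-HCl (50 mM) with ovalbumin, ATP-MgCl2, DTT | incubation = 30 min preincubation with enzyme, 25 min cleavage at room temperature | detection = AMC fluorescence 355/460 nm | read-out basis = percent inhibition | controls = no-proteasome and no-compound wells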
Beta2AR agonist = activates human beta-2 adrenergic receptor causing internalization. Am2.2-beta2AR cells, FAP receptor internalization, flow cytometry; reference of the scale not given here. response, % (no concentration beside the values). 340,000 tested, 0.43% active;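 active = response above a set limit, near 3 SD of response in nonfluorescent compounds, cut at about 42% in these data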;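 also: stock transfer was 100 nL into about 11 µL; a reference agonist was the positive control; negative values mostly stem from fluorescent compounds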
Target sequence (P07550 whole entry, looked up): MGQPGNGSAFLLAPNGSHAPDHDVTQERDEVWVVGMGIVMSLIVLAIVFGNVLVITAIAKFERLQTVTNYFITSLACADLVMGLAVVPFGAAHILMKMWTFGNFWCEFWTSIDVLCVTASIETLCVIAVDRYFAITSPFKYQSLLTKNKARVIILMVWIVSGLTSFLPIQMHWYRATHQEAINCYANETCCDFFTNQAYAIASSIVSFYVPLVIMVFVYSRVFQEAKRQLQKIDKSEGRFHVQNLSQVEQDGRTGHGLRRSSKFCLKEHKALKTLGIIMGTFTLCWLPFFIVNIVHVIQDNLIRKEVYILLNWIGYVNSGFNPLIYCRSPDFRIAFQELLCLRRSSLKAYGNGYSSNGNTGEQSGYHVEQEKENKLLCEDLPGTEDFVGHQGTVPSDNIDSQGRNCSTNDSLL
Ecoli rRNA inh OD600 = second read-out of Ecoli rRNA inh, no call of its own (marks repeat the call); OD600 change, %; measured here: OD600 growth;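 optical density of the mix in the first replicate; 0 = DMSO median and -100 = no signal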
Ecoli rRNA inh RFP = second read-out of Ecoli rRNA inh, no call of its own (marks repeat the call); RFP signal change, %; measured here: RFP humanized mutant strains;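 first replicate; 0 = DMSO median and -100 = no signal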
An asterisk follows results filed as active; i = inactive; / = no result given. This is a subset. The share of hits here may be higher or lower than overall.

SMILES,FGF22 binding,Ecoli growth,ALR inh,HNF4A DNA FP,Ecoli rRNA inh,Ecoli rRNA inh OD600,Ecoli rRNA inh RFP,UCH37 inh,Beta2AR agonist
CC(C)(C)C(=O)N1CCN(c2ccc3c(c2)C2CC3CCN2C(=O)OCc2ccccc2)CC1 (configuration not stated),i,/,/,3.9,-25.4,-29.9,-9.5,/,/
O=C(NCCCn1ccnc1)c1cc2cc([N+](=O)[O-])ccc2oc1=O,/,0.676,-4.8,2.0,/,/,/,7.1,12.6
COc1ccc(-n2cc(-c3ccccc3)c3c(N4CC(C)OC(C)C4)ncnc32)cc1 (configuration not stated),/,0.691,/,1.7,3.2,9.0,-0.7,-2.5,20.3
Cc1ccc(C)c(NC(=O)C2CCCN(c3cnccn3)C2)c1 (configuration not stated),i,0.678,-5.0,2.5,17.2,7.8,0.6,-11.6,-3.7
Cc1c(N/C(=N/S(=O)(=O)c2ccc(Cl)cc2)c2ccccc2)c(=O)n(-c2ccccc2)n1C,/,0.708,-21.7,/,/,/,/,3.0,/
CC1CCN(C2(O)C(=O)Nc3ccc(Cl)cc32)CC1 (configuration not stated),i,0.626,2.6,2.8,2.1,-5.2,2.0,1.0,1.8
COc1cccc(-c2cnc(C(O)c3ccc(F)c(F)c3)[nH]2)c1 (configuration not stated),i,/,/,-0.3,0.6,-11.1,4.6,/,/
O=C(CSc1ccc2nnc(-c3ccncc3)n2n1)NCc1ccco1,i,0.724,/,-0.9,13.7,15.2,2.1,7.1,-5.3
O=C(COC(=O)C1CC(=O)N(CCc2ccccc2)C1)c1ccc[nH]1 (configuration not stated),i,0.677,-1.5,2.5,3.2,7.2,1.8,1.7,0.6
Cc1ccc(S(=O)(=O)N2CCCC(C(=O)NCC3CCCO3)C2)cc1 (configuration not stated),i,0.704,-5.9,1.8,3.7,4.1,-2.5,2.6,1.9
Cn1nc(C(=O)OCC(=O)Nc2ccc(S(N)(=O)=O)cc2)c2ccccc2c1=O,i,0.69,-1.0,0.3,5.0,1.8,-3.4,4.6,0.6
O=C1NCC2=C1C(c1ccc(Br)cc1)Nc1ccccc1N2 (configuration not stated),/,0.722,71.9,0.8,/,/,/,-1.4,-3.1
CCOc1ccc(S(=O)(=O)N2CCN(Cc3ccc4c(c3)OCO4)CC2)cc1C,i,0.65,3.8,0.9,1.5,-19.2,2.6,4.9,2.6
Cc1ccc2nc(-c3ccccc3)cc(C(=O)N3CCN(c4ccccc4O)CC3)c2c1,i,0.625,13.6,1.0,1.9,-4.9,0.2,2.6,9.1
CC1CCCN(C(=O)c2ccc(CNc3c(N4CCCCC4)c(=O)c3=O)cc2)C1 (configuration not stated),i,0.723,-16.2,-4.0,-3.0,7.4,-7.6,2.9,2.4
COCCCN1C(=O)c2ccc(C(=O)OCC(=O)NCCc3ccccc3)cc2C1=O,i,0.67,/,-1.0,3.9,-0.7,2.3,5.0,-7.4
Cc1ccc(N(Cc2ccccc2)C(=O)c2ccc(C)c(S(=O)(=O)N3CCOCC3)c2)cc1,i,/,-3.1,-1.2,-2.5,-31.6,-1.2,/,10.3
CCSc1nc2c(cnn2-c2ccc(C)cc2)c(=O)[nH]1,i,0.735,2.2,0.3,6.8,4.2,-1.9,-0.4,4.6
CC(O)(c1ccccc1)c1nc(-c2ccc(Cl)cc2)cs1 (configuration not stated),i,/,/,1.7,-60.8,-78.2,-13.4,/,/
C=CCNC(=S)Nc1sc2c(c1C(=O)OCC)CC(C)(CC)OC2 (configuration not stated),i,0.735,-13.1,-2.6,-8.5,-7.5,-1.5,2.1,-1.4
Cc1ccsc1C(=O)N1CCCC(N(C)Cc2ccccc2)C1 (configuration not stated),i,/,2.8,-1.9,-4.5,-16.6,-0.4,/,0.1
Cc1ccc(S(=O)(=O)N2CCCC2)cc1[N+](=O)[O-],/,0.697,-2.9,2.1,/,/,/,0.7,1.1
O=C1CCCc2sc3c(c2N1)CCCCC3,/,0.686,0.9,-0.6,/,/,/,-1.0,-6.2
COCc1ccc(C(=O)N2CCCC(N3CCN(c4ccccc4C)CC3)C2)s1 (configuration not stated),i,0.687,13.1,0.3,-3.8,-12.2,0.0,-0.5,3.5
CCOC(=O)C1=C(COC(=O)CNC(=O)c2ccc(Cl)cc2Cl)NC(=O)NC1C (configuration not stated),i,0.691,-1.7,-1.6,1.0,10.4,1.0,1.4,-2.8
CS(=O)(=O)N(Cc1ccco1)Cc1ccccc1Cl,/,0.738,-3.4,0.3,-5.0,-10.1,1.7,4.2,5.8
COCc1nnc(NC(=O)CCS(=O)(=O)c2ccccc2)s1,i,0.595,-1.6,0.9,3.2,8.7,1.3,0.9,-1.3
Cc1ccc(-n2nnnc2-c2cccs2)cc1[N+](=O)[O-],i,0.688,-24.2,-2.2,-5.4,3.3,-2.5,4.9,-7.5
COc1cccc(CNCc2cccc(OC)c2O)c1O,i,/,/,-4.7,0.6,2.6,-2.0,/,1.7
CN(C(=O)c1ccc(OC2CCN(CCc3ccccc3)CC2)cc1)C1CCOC1 (configuration not stated),i,0.725,-36.0,1.6,12.1,7.4,-0.5,0.8,-14.6
O=C(NNC(=O)C1CCCO1)c1ccccc1Cl (configuration not stated),/,0.762,-2.1,0.9,/,/,/,-5.1,0.3
Cc1cc2nc(SCC(=O)Nc3nonc3C)c3c(c2cc1C)CCCC3,/,0.762,-4.7,1.8,/,/,/,0.5,-2.8
COc1ccccc1C(=O)N1CCCC(c2nc(-c3cc(OC)c(OC)c(OC)c3)no2)C1 (configuration not stated),/,0.674,/,0.1,/,/,/,-2.1,6.2
O=c1[nH]c2ccc(NCc3ccc(OCc4ccccc4Cl)cc3)cc2[nH]1,i,0.683,7.1,-1.9,-3.2,1.5,0.7,0.8,18.3
COc1cc(OC)cc(C(=O)N2CCC(C(=O)N3CCOCC3)CC2)c1,i,0.699,-4.6,3.4,2.1,3.2,-3.7,4.2,-0.8
O=C(CN1CCC(C(=O)c2ccc3c(c2)OCCO3)CC1)NC1CCCC1,/,0.655,-4.8,6.1,/,/,/,-2.2,0.2
CC(=O)c1cccc(-n2nnnc2SCC(=O)N2CCCC2)c1,/,0.754,-7.2,-2.1,/,/,/,1.0,-6.7
COC1CCN(Cc2c(C(=O)N3CCN(C4CCCCC4)CC3)nc3ccccn23)CC1,/,0.694,1.0,-11.6,/,/,/,-12.0,-8.2
COc1ccc(CC(=O)Nc2ccccc2C(F)(F)F)cc1S(=O)(=O)N1CCOCC1,i,/,/,3.8,8.8,8.1,5.3,/,/
O=C(CN(C(=O)C1CSC(=O)C1)c1cccc(F)c1)NCc1ccc2c(c1)OCO2 (configuration not stated),i,0.661,/,-2.9,-1.7,-0.2,0.0,0.9,5.8

Record cards (already shown). Order of screens: FGF22 binding, Ecoli growth, ALR inh, HNF4A DNA FP, Ecoli rRNA inh, Ecoli rRNA inh OD600, Ecoli rRNA inh RFP, UCH37 inh, Beta2AR agonist
Entry for COc1cccc(CNCc2cccc(OC)c2O)c1O : i, /, /, -4.7, 0.6, 2.6, -2.0, /, 1.7
Entry for O=C(CN1CCC(C(=O)c2ccc3c(c2)OCCO3)CC1)NC1CCCC1 : /, 0.655, -4.8, 6.1, /, /, /, -2.2, 0.2

(next part)
SMILES,FGF22 binding,Ecoli growth,ALR inh,HNF4A DNA FP,Ecoli rRNA inh,Ecoli rRNA inh OD600,Ecoli rRNA inh RFP,UCH37 inh,Beta2AR agonist
CCCC(c1nnnn1CCc1ccccc1)N1CCN(C2CCCC2)CC1 (configuration not stated),/,0.745,-4.6,0.6,/,/,/,0.3,0.0
Cc1ccc(S(=O)(=O)CCC(=O)NCc2ccccc2Cl)cc1,i,0.694,-1.3,1.0,17.3,10.5,-2.8,4.4,-1.6
CN1CCN(c2nc(-c3ccccc3)nc(-c3ccccc3)c2C#N)CC1,i,0.659,-18.3,3.8,-8.0,-5.9,1.6,-0.4,-2.5
CC(C)NC(=O)c1ccc(-c2ccccc2C(F)(F)F)o1,/,0.698,-3.1,2.0,/,/,/,1.2,-18.8
O=C(NN1C(=O)C2C3CCC(O3)C2C1=O)c1ccco1 (configuration not stated),i,0.698,-6.1,-1.2,6.5,8.9,1.8,0.0,-3.4
CCOC(=O)CC1CCCCN1Cc1cn[nH]c1-c1ccc(F)cc1F (configuration not stated),i,0.695,0.7,0.8,5.2,-0.8,0.6,1.5,4.2
COc1cccc(/C=N/NC(=O)CC(C)O)c1OC/C=C/c1ccccc1 (configuration not stated),i,/,-2.7,5.6,0.3,3.3,-1.5,/,-2.2
Cc1ccc(C(C)C)c(OCC(O)CN2CCN(CCO)CC2)c1 (configuration not stated),/,0.669,-8.9,0.2,/,/,/,2.3,-3.6
CC(=O)Nc1ccc(S(=O)(=O)N[C@@H](C)C(=O)Nc2ccc(N3CCOCC3)cc2)cc1,/,0.71,74.5,-0.1,/,/,/,3.0,-2.2
COc1ccc(CCNC(=O)C2CC(=O)N(c3ccc(F)cc3)C2)cc1OC (configuration not stated),/,0.665,-3.2,-1.3,/,/,/,2.4,-3.4
CCOC(=O)NC(=O)c1cn(-c2ccc(OC)cc2)c(=O)[nH]c1=O,i,0.67,/,5.5,4.7,9.8,-2.3,0.5,9.7
Cc1ccc(NC(=O)C2(C)CCN2C2Cc3ccccc3C2)cc1 (configuration not stated),i,/,/,-0.9,-60.0,-79.2,-22.2,/,/
CC1(C(=O)NCCc2c[nH]c3ccccc23)CCN1Cc1csc2ccccc12 (configuration not stated),i,/,/,0.7,-17.4,-40.3,-0.3,/,/
CCCS(=O)(=O)N1CCCC(C(=O)c2cccc(Cl)c2)C1 (configuration not stated),i,/,0.8,-0.5,-18.4,-21.5,-3.1,/,-4.2
O=S(=O)(CCc1ccncc1)c1ccc(Cl)cc1,i,0.676,1.7,2.0,4.3,10.6,-1.2,4.2,-1.6
O=C(CCC1CCCCC1)Nc1ccc(S(=O)(=O)Nc2nccs2)cc1,/,0.668,6.2,2.9,-6.2,4.8,6.0,4.1,13.2
Cc1ccc(C(=O)CCC(=O)OCC(=O)N2c3ccccc3NC(=O)C2(C)C)cc1,i,0.688,/,2.2,4.7,7.3,-0.4,2.1,-1.1
O=C(COC(=O)c1cc[n+]([O-])cc1)Nc1cccc(Cl)c1Cl,i,0.68,-16.2,5.6,4.1,-7.9,0.5,2.7,-0.9

Screening data from PubChem BioAssay.
